Screening results from PubChem BioAssay.
Vaccinia mCherry – qHTS for Stage-Specific Inhibitors of Vaccinia Orthopoxvirus: mCherry Reporter Primary qHTS; Potency, µM (series often up to 36.5 µM), for the others: top-dose activity change, negative = inhibition, usual class: inhibitors; hit rate 0.63% among 310,000; Vaccinia virus mCherry reporter infection, fluorescence; about a quarter of the inactives have no number; active = well fitted inhibition curve with a large enough effect; inconclusive = small, poorly fitted or top-dose-only effect; inactive = no such curve, though single readings can be large or run the other way; tested in A549 cells; further: nearly all actives have a fitted effect of over 35% in size; inactives centre near -10
Vaccinia Venus – qHTS for Stage-Specific Inhibitors of Vaccinia Orthopoxvirus: Venus Reporter Primary qHTS. Vaccinia virus Venus reporter expression, fluorescence. Potency, µM (top dose mostly 36.5 µM), without a hit: at the highest dose activity change, negative = inhibition, most hits filed as inhibitors. AID 720580, 2013. hit rate 0.46% among 330,000; active means well fitted inhibition curve with a large enough effect; inconclusive means small, poorly fitted or top-dose-only effect; inactive means no such curve, though single readings can be large or run the other way; tested in A549 cells; further: nearly all actives have a fitted effect of over 30% in size; inactives centre near -10
* marks the source's active call; other numbers are inactive results; i = inactive; u = inconclusive; x = not tested or not shown; & = joins results of further samples; [ ] = remark or other dose. On the % scale 0 is the no-effect control and ±100 the full control effect; potency means the concentration at half of the fitted maximal effect. Outcome played no part in choosing rows; any-hit rate near 0.86%.

SMILES | Vaccinia mCherry | Vaccinia Venus
CN(C)S(=O)(=O)N1CCN(S(=O)(=O)c2ccc3ccccc3c2)CC1 | -11% | -3%
O=C1C(Cc2ccc(O)cc2)NC(=S)N1C1CCCCC1 (stereo not given) | u | -3%
COc1ccc(CCN2C(=O)CC(NNC(=O)c3ccccc3Br)C2=O)cc1OC (stereo not given) | -14% | -5%
O=C(c1ccc2c(c1)N(Cc1ccccc1)C(=O)c1ccccc1S2(=O)=O)N1CCN(c2ccccn2)CC1 | -11% | -2%
Cc1nn(-c2ccc(F)cc2)c(Cl)c1/C=N/NC(=O)c1cccs1 | i | u
Cc1nc2scc(-c3ccccc3)c2c(=O)n1N | x | -21%
O=[N+]([O-])c1ccccc1S(=O)(=O)N(CC(O)CN1CCCCC1)c1ccccc1 (stereo not given) | -2% | -10%
CCc1nc2nc(C)c(NS(=O)(=O)c3ccc(F)cc3)c(=O)n2[nH]1 | -6% | -11%
O=S(=O)(NCC1CC1)c1cccc(S(=O)(=O)N2CCCC2)c1 | x | -15%
CCOC(=O)c1ccccc1NC(=O)Cn1cnc2c(cnn2C(C)(C)C)c1=O | x | -11%
O=C(Nc1cccc(C(F)(F)F)c1)OCc1ccncc1 | -27% | -27%
COc1cc(/C=C/c2cc(C(=O)O)c3ccccc3n2)cc(OC)c1O | -6% | -7%
CC(=NNC(=S)N1CC2CCC(CC2)C1)c1cnccn1 | 16µM* | u
CSc1ccc(S(=O)(=O)NCc2ccccc2C)cc1 | -9% | -8%
CC1CCN(Cc2nc(-c3ccccc3)no2)CC1 | i | -10%
COc1ccc(CNC(=O)[C@@H]2CCCN2C(=O)[C@@H]2Cc3ccccc3CN2C(=O)OC(C)(C)C)cc1 | i | -10%
COCCCNC(=O)Cn1cnc2sc(C)c(S(=O)(=O)N3CCC(C)CC3)c2c1=O | -7% | -15%
CC(C)Oc1ccc(C(=O)Nc2nnc(SCC(=O)N3CCOCC3)s2)cc1 | i | -14%
CCC(=O)N1CCc2cc(Br)cc(S(=O)(=O)NCCc3ccc(OC)c(OC)c3)c21 | 0% | 9%
Cc1ccc(CNC(=O)CCC(=O)N2CC(C)Sc3ccccc32)cc1 (stereo not given) | -2%&-18% | -6%&-11%
CC1(C)Cc2c(cnn2-c2ccc(F)cc2)C(NC(=O)CCN2CCCCO2)C1 (stereo not given) | i | -14%
CC(N)C12CC3CC(C1)CC(C(C)N)(C3)C2 (stereo not given) | -12% | -6%
COc1ccc(-c2nc3ccc(Cl)cn3c2NC2CCCCC2)cc1SC1CCCCC1 | u | -18%
COc1ccc(NC(=O)CSc2nc(N)c(-c3ccccc3)c(=O)[nH]2)cc1 | -8% | 2%
CC1=NN(c2ccccc2)C(=O)/C1=C\C=C1\N(C)c2ccccc2C1(C)C | i | 6%
COc1ccc(OC(C)c2nc3ccccc3[nH]2)cc1 (stereo not given) | -16%[7.34 µM] | -13%[7.34 µM]
CCOC(=O)CC1C(=O)NCCN1C(=O)COc1ccc(C(C)(C)C)cc1 (stereo not given) | 0% | -2%
CCOC(=O)N1CCC(NC(=O)c2ccc3c(c2)N=C(C)c2ccccc2S3)CC1 | -4%[7.34 µM] | 6%[7.34 µM]
CC1CCCCN1C(=O)COc1ccccc1F (stereo not given) | -7% | -2%
Cc1c(Cl)cccc1-n1c(SCC(=O)N2CCC(C(=O)O)CC2)nc2ccccc2c1=O | -6% | -2%

Pulled one by one from above:
SMILES | Vaccinia mCherry | Vaccinia Venus
COCCCNC(=O)Cn1cnc2sc(C)c(S(=O)(=O)N3CCC(C)CC3)c2c1=O | -7% | -15%
CC(C)Oc1ccc(C(=O)Nc2nnc(SCC(=O)N3CCOCC3)s2)cc1 | i | -14%
CCOC(=O)N1CCC(NC(=O)c2ccc3c(c2)N=C(C)c2ccccc2S3)CC1 | -4%[7.34 µM] | 6%[7.34 µM]
Cc1ccc(CNC(=O)CCC(=O)N2CC(C)Sc3ccccc32)cc1 (stereo not given) | -2%&-18% | -6%&-11%
COc1ccc(CNC(=O)[C@@H]2CCCN2C(=O)[C@@H]2Cc3ccccc3CN2C(=O)OC(C)(C)C)cc1 | i | -10%
CC1CCCCN1C(=O)COc1ccccc1F (stereo not given) | -7% | -2%
Cc1c(Cl)cccc1-n1c(SCC(=O)N2CCC(C(=O)O)CC2)nc2ccccc2c1=O | -6% | -2%

The results go on:
SMILES | Vaccinia mCherry | Vaccinia Venus
CCOC(=O)c1ccc(NC(=O)CCC(=O)N2CCSc3ccccc32)cc1 | -15% | -8%
COC(=O)c1ccc(CN2C(=O)C(Cc3ccccc3)ON=C2c2ncccc2C)o1 (stereo not given) | 9% | 6%
O=C(Cn1c(=O)nc(-c2ccccc2)c2ccccc21)NCCc1ccccc1 | i | -10%
O=C(C1CCC(=O)N(C2CC2)C1)N1CCN(c2ccccc2Cl)CC1 (stereo not given) | -16% | -18%
CC(C)(C)C(=O)N1Cc2ccccc2-n2nncc2C1 | 2% | -7%
COc1ccc(CC(=O)Nc2c(C(=O)Nc3ccccc3F)oc3ccccc23)cc1 | 0% | -10%
CC1=C(C(N)=O)C(c2cccc(C)c2)n2nc(-c3ccc(Cl)cc3)nc2N1 (stereo not given) | -17% | -14%
C[C@H]1CN([C@@H](C)CO)C(=O)c2cc(-c3ccccc3F)cnc2O[C@@H]1CN(C)C(=O)NC1CCCCC1 | -13% | -17%
CS(=O)(=O)c1ccc2nc(NC(=O)c3cc4ccccc4o3)sc2c1 | -5% | -10%
Cc1cc(NC(=O)CSc2nc3c(c(=O)n(C)c(=O)n3C)n2C(C)C)no1 | -16% | -4%
Cc1cc2oc(=O)cc(CN3CCN(S(=O)(=O)/C=C/c4ccccc4)CC3)c2cc1C | 17% | -1%
COc1cccc(CNC(=O)C2CCN(S(=O)(=O)c3cccc4cccnc34)CC2)c1 | 5% | -14%
CCOC(=O)N1CCN(C(=O)/C(=C\c2ccc(SC)cc2)NC(=O)c2ccccc2)CC1 | -8% | -22%
CCCOC(=O)C1=C(C)NC2=C(C(=O)CCC2)C1c1cccc(OC)c1OC (stereo not given) | -13% | -9%
COc1ccccc1N(C(=O)c1csnn1)C(C(=O)NC1CCCC1)c1ccccc1 (stereo not given) | i | 6%

Among those listed so far, these contain a COOH group:
SMILES | Vaccinia mCherry | Vaccinia Venus
COc1cc(/C=C/c2cc(C(=O)O)c3ccccc3n2)cc(OC)c1O | -6% | -7%
Cc1c(Cl)cccc1-n1c(SCC(=O)N2CCC(C(=O)O)CC2)nc2ccccc2c1=O | -6% | -2%

A second format for part of the listing above.
Compound,Vaccinia mCherry,Vaccinia Venus
CC(C)(C)C(=O)N1Cc2ccccc2-n2nncc2C1,2%,-7%
COc1cccc(CNC(=O)C2CCN(S(=O)(=O)c3cccc4cccnc34)CC2)c1,5%,-14%

The results go on.
SMILES | Vaccinia mCherry | Vaccinia Venus
CN(C)CCCN1c2ccc3ccccc3c2Sc2cccc(Cl)c21 | u | u
Cc1ccnc(NS(=O)(=O)c2ccc(NS(=O)(=O)Cc3ccccc3)cc2)n1 | -9% | 0%
O=C(Cc1ccc(Cl)cc1)N/N=C/c1ccc(O)c(O)c1 | -3% | -9%
O=C(CSc1nnnn1C1CCCCC1)Nc1ccc(F)cc1 | 1% | -2%
Cc1ccc(NC(=O)Cc2nn(C)c(=O)c3ccccc23)cc1F | i | -4%
C[C@H](CO)N1C[C@H](C)[C@@H](CN(C)C(=O)Nc2ccccc2)Oc2c(NS(=O)(=O)c3ccc(F)cc3)cccc2C1=O | u | u
COc1ccc(NC(=O)COC(=O)Cn2cnc3ccccc32)cc1 | -18% | -2%
O=C(O)c1nn(Cc2ncc(-c3cccc(Cl)c3)o2)c(=O)c2ccccc12 | -15% | -1%
CC1=C(C(=O)N2CCOCC2)CC(CC(=O)NC2CCCC2)C(=O)N1Cc1ccc(F)cc1 (stereo not given) | 0% | -9%
Cc1cccc(N2CCN(c3nc4ccccc4c4nc(-c5ccccc5)nn34)CC2)c1C | -19% | -1%
O=C(Nc1cccc(Cl)c1)Nc1ccccc1C(=O)NCc1ccco1 | x | -21%
Cc1ccc(OCc2nnc(SCC(=O)Nc3cccc4ccccc34)n2-c2ccccc2)cc1 | u | u
CC(C)c1ccc(NC(=O)c2ccc3c(c2)CCN3S(=O)(=O)c2ccccc2)cc1 | u | u
CCC(C)(C)C1CCc2c(sc(N)c2C(N)=O)C1 (stereo not given) | -20% | -24%
CC(C)(C)OC(=O)NCCCCCNC(=O)c1nc[nH]c1C(=O)N1CCN(C(=O)OC(C)(C)C)CC1 | -22% | -19%
O=C(CSc1ccccc1)Nc1cc(Cl)ccc1Oc1ccccc1 | i | 0%
Cn1c(CCNC(=O)C2CCCCC2)nc2cc(NC(=O)c3cccs3)ccc21 | -2% | -2%
Cc1ccc2nc(C(O)C(O)c3nc4ccc(C)cc4[nH]3)[nH]c2c1 (stereo not given) | -20% | -16%
Cc1ccc2c(c1)Oc1ccc(NC(=O)CCl)cc1C(=O)N2 | -27% | -21%
O=[N+]([O-])c1c(-c2cn[nH]c2)n[nH]c1-c1cn[nH]c1 | i | 11%
CCN1CCN(CCCNC(=O)c2cnn(-c3ccccc3Cl)c2C2CCN(C(=O)OC(C)(C)C)CC2)CC1 | -15% | -7%
COc1cccc(C(=O)Nc2cnn(C(C)C)c2)c1 | i | -11%
CCc1ccccc1NC(=O)C1CCN(C(=O)N2CC(C)Oc3ccc(Cl)cc32)CC1 (stereo not given) | -10% | -7%
CSc1nn2c(C(F)(F)F)cc(C(F)(F)F)nc2c1C(=O)O | -11% | 3%
CCOC(=O)CN(C(=O)CSc1nnc(Cc2ccccc2)n1-c1ccc(C)cc1)c1ccccc1 | x | -20%
CN(CC(=O)Nc1cccc(Cl)c1)S(=O)(=O)c1ccc2[nH]c3c(c2c1)CCCC3 | -12% | -6%
CCn1c2ccccc2c2nc3cc(S(=O)(=O)N4CCOCC4)ccc3nc21 | u | u
Cc1cccc(C)c1OCc1cn(CC(=O)c2ccc(O)cc2)nn1 | i | -4%
COc1ccc(CCN2C(=O)CC(NNC(=O)c3ccccc3Br)C2=O)cc1 (stereo not given) | i | -5%
CCOc1cc(/C=N/NC(=O)N/N=C/c2ccc(O)c(OCC)c2)ccc1O | u | u

Brought forward from above: 2 entries; new compounds follow.
SMILES | Vaccinia mCherry | Vaccinia Venus
COc1ccc(CCN2C(=O)CC(NNC(=O)c3ccccc3Br)C2=O)cc1 (stereo not given) | i | -5%
CCOc1cc(/C=N/NC(=O)N/N=C/c2ccc(O)c(OCC)c2)ccc1O | u | u
COC(=O)c1ccncc1C(=O)Nc1ccc(Oc2ncc(C(F)(F)F)cc2Cl)cc1 | -16% | 4%
O=C1C=CN(C2OC(CO)C(O)C2O)C(=O)C1 (stereo not given) | -11% | 16%
Cc1[nH]c2ccccc2c1C(=O)C(=O)Nc1ccc2c(c1)OCCO2 | -5% | -19%
O=C1c2ccccc2N2C(=O)c3ccccc3[C@H]2N1c1ccccc1 | x | -1%
O=C(CN(C(=O)c1csnn1)c1ccccc1F)NC1CCCCC1 | -12% | 0%
O=C(Nc1cccc(-c2nc3ncccc3o2)c1)c1cc2ccccc2o1 | -16% | 1%
O=C(O)CC(NC(=O)C12CC3CC(CC(C3)C1)C2)c1cccc([N+](=O)[O-])c1 (stereo not given) | 2% | 7%
CC1Cc2ccccc2N1C(=O)Cn1c(=O)oc2cc(S(=O)(=O)NC3CCCC3)ccc21 (stereo not given) | -24% | u
O=C(Nc1ccc(Cl)cc1)C1Cc2c(-c3ccccc3Oc3ccccc3)ccnc2O1 (stereo not given) | 2% | -8%
CCOc1cc(S(=O)(=O)N2CCN(c3ccc(F)cc3)CC2)c(OCC)cc1-n1cnnn1 | -6% | 8%
Cc1cccc(N2CCN(c3ncnc4onc(C)c34)CC2)c1C | -6% | -4%
O=C(CN1C(=O)c2ccccc2Sc2ccc(C(=O)N3CCOCC3)cc21)Nc1ccc(Cl)cc1F | 4% | 0%
CN(CC(=O)NC1CCCCCCC1)S(=O)(=O)c1cccc2cccnc12 | 8% | -5%
O=C(O)C1=C[C@H](c2ccc(C(F)(F)F)cc2)C[C@H](OCc2ccc(CO)cc2)O1 | -4% | 1%
CC(C)N1CCN(Cc2ccc(-c3ccccc3)cc2)CC1CCO (stereo not given) | i | -23%
CC(C)CC1=NN(C(=O)c2ccncc2)C(O)(C(F)(F)F)C1 (stereo not given) | -14% | -1%
S=C1NC2(CCCCC2)Cc2ccccc21 | -20% | -20%
CC(C)(C)C(=O)Nc1nc2nc(-c3ccccc3)cc(=O)n2[nH]1 | -10% | -16%
C/C(CC(=O)Nc1ccc(N(C)C)cc1)=N\NC(=O)c1ccc(Cl)cc1Cl | -18% | -7%
CCOC(=O)c1c(NC(=O)C(C)Oc2ccc(Cl)c(C)c2)sc2c1CCCC2 (stereo not given) | -13% | -14%
COC(=O)/C=C(\Oc1ccccc1)C1(O)CCCCC1 | i | -3%
Cc1cccc(NC(=O)CSc2nnc(CNC(=O)c3ccco3)n2C)c1 | 12%&-15% | -3%&-9%
CC(C)CCN1CCN(Cc2cccn2-c2ccc(Cl)cn2)CC1CCO (stereo not given) | i | 1%
CCc1cc(C(=O)N2CCOc3ccc(CN4CCN(Cc5ccccn5)CC4)cc3C2)no1 | -12% | 5%
COC(=O)C=CSC(=S)C1CCCC1=N (stereo not given) | i | -10%
O=C(Nc1ccccc1C(=O)NCc1ccccc1)c1ccccc1Br | -11% | -2%
CC(=O)N1CC(C)Sc2ccc(S(=O)(=O)N3CCCCC3)cc21 (stereo not given) | -2% | -16%
CC(Sc1nnc(Cn2c(=O)sc3ccccc32)n1C)c1ccccc1 (stereo not given) | -11% | -6%
COc1ccc(F)c(CN2CCCC(CNS(=O)(=O)c3cccc4cccnc34)C2)c1 (stereo not given) | u | -15%
